# Source: PubChem (National Center for Advancing Translational Sciences (NCATS))
# Rango dissoc inh – prevents RanGTP from dissociating the Rango-importin beta complex; Potency, µM (top dose mostly 46.1 µM), for inactives: top-dose activity change, negative = inhibition; O95149+P62826; AID 540253; 340,000 compounds, 0.071% hits; Biochemical FRET Rango-importin beta, RanGTP-induced dissociation; active means falling FRET ratio curve, often poorly fitted, with flat reads before Ran was added; inconclusive means other falling curves, or compound fluorescence or quenching; inactive means flat or rising ratio curve;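 note: potency is the fitted concentration of half-maximal effect; % of control where 0% means no effect; nearly all actives have a fitted effect of over 45% in size; -100% = wells without RanGTP and RCC1; the record marks most hits as doubtful in a second field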
#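 Recombinant Rango FRET biosensor (EYFP–snurportin 1 IBB–cerulean CFP10) at 0.1 uM premixed with 0.25 uM importin beta in PBS, 1 mM DTT, 0.02% Tween-20, 0.1% BSA. Compound added 5 min; RanGTP-RCC1 (0.6 uM Ran, 2 mM GTP, 0.2 uM RCC1) then triggers release, read at 45 min.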
# Rango-impB inh – Rango-importin beta binding inhibition. Q14974. Rango CFP/YFP FRET sensor + importin beta, 45 min. Potency, µM (highest dose often 92.2 µM), for inactives: top-dose inhibition of complex formation. 340,000 compounds, 0.031% hits. AID 540263; active = rising FRET ratio curve, often small or poorly fitted; inconclusive = mostly compound fluorescence or quenching in the first reads; inactive = flat curves in all reads;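 note: potency is the fitted concentration of half-maximal effect; 0% = DMSO wells and 100% = buffer wells lacking importin beta; nearly all actives have a fitted effect of over 15% in size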
# Target sequence (Q14974 whole entry, looked up): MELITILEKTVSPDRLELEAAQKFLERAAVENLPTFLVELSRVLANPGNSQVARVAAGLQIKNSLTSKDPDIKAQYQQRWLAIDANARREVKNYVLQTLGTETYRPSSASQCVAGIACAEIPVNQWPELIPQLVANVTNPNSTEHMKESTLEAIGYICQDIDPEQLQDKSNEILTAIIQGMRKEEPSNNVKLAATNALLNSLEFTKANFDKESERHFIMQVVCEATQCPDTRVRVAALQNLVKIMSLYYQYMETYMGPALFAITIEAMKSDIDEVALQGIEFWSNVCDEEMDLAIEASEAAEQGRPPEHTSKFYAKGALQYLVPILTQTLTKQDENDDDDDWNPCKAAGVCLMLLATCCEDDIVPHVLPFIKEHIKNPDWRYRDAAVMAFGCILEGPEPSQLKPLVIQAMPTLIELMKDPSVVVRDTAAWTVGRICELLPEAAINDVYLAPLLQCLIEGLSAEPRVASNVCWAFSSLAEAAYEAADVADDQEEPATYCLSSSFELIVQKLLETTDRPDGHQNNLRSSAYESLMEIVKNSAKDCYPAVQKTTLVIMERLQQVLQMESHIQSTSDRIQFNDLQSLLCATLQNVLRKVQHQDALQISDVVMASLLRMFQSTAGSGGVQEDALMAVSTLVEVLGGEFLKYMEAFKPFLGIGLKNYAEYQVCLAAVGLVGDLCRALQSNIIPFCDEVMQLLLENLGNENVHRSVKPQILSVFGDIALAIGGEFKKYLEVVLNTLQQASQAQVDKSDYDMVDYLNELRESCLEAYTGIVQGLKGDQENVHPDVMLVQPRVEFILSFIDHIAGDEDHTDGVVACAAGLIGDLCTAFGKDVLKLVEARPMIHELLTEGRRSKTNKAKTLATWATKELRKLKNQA
#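 FRET biosensor (snurportin 1 IBB flanked by EYFP and cerulean), 50 nM, with compound 5 min, then 0.125 microM importin beta in PBS, 1 mM DTT, 0.02% Tween-20, 0.1% BSA. CFP/YFP ratio read after 45 min at room temperature; pre-read flags interference.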
# miR-21 FLuc – raises the signal of a miR-21 reporter; HeLa miR-21 FLuc reporter, luciferase, 48 h; Potency, µM (highest dose often 38.3 µM), for the others: at the highest dose reporter change, positive = more light; AID 2288; 340,000 tested, under 10 active; active = well fitted rising curve with a large enough effect; inconclusive = small, poorly fitted or top-dose-only effect; inactive = no such curve, though single readings can be large or run the other way;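 note: % of control where 0% means no effect; miR-21 action dims this reporter so a rising signal means less miR-21 action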
#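 HeLa cells stably expressing CMV-driven firefly luciferase with a downstream miR-21 binding sequence, endogenously expressing miR-21, were treated with titrations (up to about 40uM final) for 48 hours at 37 degree Celsius. Luciferase luminescence was read after lysis.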
# GLA inh pH 4.5 – inhibitors of human alpha-galactosidase A at pH 4.5; P06280; purified enzyme, 4-MU-alpha-Gal fluorescence, pH 4.5; activity change, negative = inhibition, % at 105 µM; 230,000 tested, under 10 active; AID 1467; inconclusive = small, poorly fitted or top-dose-only inhibition, or a rising curve; inactive = flat fitted curve, though single readings scatter; no compound was filed as active;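 note: 0% = full activity with enzyme and -100% = basal without enzyme; dose as in the result columns while the protocol names 77 µM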
# The depositor's hits bear a star; ? = inconclusive; . = no result given. Not all compounds are listed; count on the stated rates, not on these rows.
Rango dissoc inh | Rango-impB inh | miR-21 FLuc | GLA inh pH 4.5 | structure
-7% | 2.0% | 1% | 4 | CCOC(=O)CNc1ccc(OC(F)(F)F)cc1
14% | -3.0% | -7% | 5 | Cn1c(C(=O)OC(C(=O)NC2CCCC2)c2ccncc2)cc2sccc21 (configuration not stated)
10% | -3.2% | . | . | COc1cccc(CNC(=O)COC(=O)c2ccc(Cl)s2)c1
2% | -0.5% | . | . | COc1ccc(CCNC(=O)COC(=O)c2ccc([N+](=O)[O-])o2)cc1
? | ? | . | . | N#Cc1ccc(C(=O)OCC(=O)NC(=O)NC2CCCCC2)cc1
1% | 3.8% | 5% | 0 | O=C(ONC1=NCCCCC1)c1cccc([N+](=O)[O-])c1
12% | -1.9% | -2% | -20 | Cc1ccc(S(=O)(=O)Nc2ccccc2CNc2ncc(Br)cc2Br)cc1
-15% | 1.9% | -3% | 0 | O=C(CSc1ccsc1[N+](=O)[O-])NCCc1ccc(Cl)cc1
18% | -1.5% | 7% | . | Cn1ccsc1=NC(=O)c1ccc([N+](=O)[O-])o1
1% | 0.2% | 0% | 1 | CC(C)CCN1CCN(Cc2cccn2-c2nccs2)CC1CCO (configuration not stated)
-5% | -6.6% | -3% | -18 | Cc1cccc(Sc2c([N+](=O)[O-])ncn2C)n1
0% | ? | -3% | 2 | Cc1ccc(SCc2ccc(C(=O)Nc3ccccc3Br)cc2)cc1
11% | -0.2% | 15% | 0 | CN(C)Cc1nc2ccccc2c(=O)n1Cc1nc(C(C)(C)C)cs1
8% | 0.4% | 1% | . | Cc1c(C)c2c(OCC(=O)NCC(=O)NCC(=O)O)cc3c(c2oc1=O)CCC(C)(C)O3
7% | -0.1% | -1% | . | CC(C)C[C@H](NC(=O)OC(C)(C)C)C(=O)N[C@@H](CO)[C@H](O)[C@@H]1C[C@@H]1C(=O)NC1CC1
. | . | -5% | 8 | Cc1ccc(NC(=O)C(=O)NCc2ccc(/C=N/NC(=O)c3c(C)nc4cc(C)ccn34)o2)cc1
1% | -3.8% | -1% | -2 | COc1cc(C2OC(c3cc(OC)c(OC)c(OC)c3)C(C)C2C)cc(OC)c1OC (configuration not stated)
-8% | -3.0% | -11% | 0 | Cc1ccc(C(=O)c2cc(C)sc2N)cc1
-19% | 4.4% | -6% | -5 | Cn1cccc1C(=O)NC(=O)CSc1nc2ccccc2s1
-4% | 4.0% | -22% | -11 | CCC(C)(C)n1nnnc1C(c1ccc(O)c(OC)c1)N1CCN(c2nc3ccccc3s2)CC1 (configuration not stated)
? | ? | -43% | -3 | Cc1ccc(CNC(=O)Nc2cccs2)cc1
-10% | 3.6% | 1% | 3 | CSc1ccc(C2CC(=O)Nc3nc(SC)[nH]c(=O)c32)cc1 (configuration not stated)
-1% | -1.3% | -18% | 5 | Cc1ccc(S(=O)(=O)NCC2NCCc3ccccc32)cc1 (configuration not stated)
-6% | -2.6% | 1% | -7 | O=C(NCCCN1CCOCC1)C(C(=O)c1ccccc1)n1ccccc1=O (configuration not stated)
-26% | ? | . | . | Cc1noc(C)c1C(=O)Nc1sccc1C(N)=O
3% | 2.3% | -16% | -3 | CC(=O)Oc1ccc(N2C(=O)[C@@H]3[C@H](C2=O)[C@H]2c4ccccc4C=NN2[C@@H]3C(C)=O)cc1
4% | 0.0% | 28% | 0 | Cc1ccc(Sc2nnc(Cc3ccccc3)c3ccccc23)cc1
39% | 1.5% | 14% | -10 | C=CCn1c(O)c(N=NC(=O)CNC(=O)c2ccco2)c2ccccc21
17% | -5.3% | 0% | . | CC1(C)Cc2c(sc3[nH]c(=O)n(CC(=O)NCC4CCCO4)c(=O)c23)CO1 (configuration not stated)
-8% | -6.9% | -17% | 3 | CN1CCN(c2ccccc2NC(=O)Cc2cn(C)c3ccccc23)CC1
-11% | 0.2% | . | . | CCCCn1c(CCl)nc2cc(S(=O)(=O)N3CCOCC3)ccc21
-18% | -0.7% | -1% | -7 | CCCCN1C(=O)Cc2c1nc(N)c1c(N)nc(N(CCC)CCC)c(C#N)c21
-7% | -3.0% | -5% | 4 | O=C(NCCCn1ccnc1)c1noc2c1CCCC2
1% | 2.9% | -9% | 2 | COCCN1CCn2c(nc3cc([N+](=O)[O-])ccc32)C1
10% | -2.9% | 2% | -11 | O=C(COC(=O)Cc1cn2ccsc2n1)NCc1ccc2c(c1)OCO2
-5% | -1.5% | -2% | -10 | Cc1ccc(/C=N/NC(=O)c2cccnc2)o1
1% | -3.9% | 1% | 0 | CCN(CC)S(=O)(=O)c1cc(NC(=O)CNc2c(C)n(C)n(-c3ccccc3)c2=O)ccc1C
-11% | 0.7% | 0% | -10 | CC1CN(C(=O)c2ccccc2)c2ccccc2NC1=O (configuration not stated)
-2% | -0.6% | . | . | CC(C)N(C(=O)CN1CCN(S(=O)(=O)c2ccc(Br)s2)CC1)C(C)C
-9% | -1.6% | 0% | -2 | O=C(O)/C=C/C(=O)OC1CC2CCC1C2 (configuration not stated)
1% | -2.8% | 0% | 3 | Cc1cccc(NC2=C(Cl)C(=O)OC2NC(=O)c2ccccc2)c1 (configuration not stated)
-9% | 1.4% | 2% | -4 | Cn1cnnc1Sc1cc(N2CCN(S(=O)(=O)c3ccc(Cl)c(Cl)c3)CC2)ccc1[N+](=O)[O-]
-3% | 3.7% | -1% | -13 | CCOC(=O)c1cnc2[nH]c3ccccc3n2c1=O
6% | -1.0% | -6% | 8 | CSc1ccccc1NC(=O)CN1CC(C)OC(C)C1 (configuration not stated)
-1% | 0.4% | -3% | -8 | Cc1cc2c(=O)n(C)c(SCC(=O)c3cc4ccccc4o3)nc2s1
2% | -0.6% | 3% | -1 | CC(C)OC(=O)c1nnc(-c2ccccc2)nc1OC(C)C
2% | 4.5% | 6% | -20 | Cc1ccc(-c2[nH]ncc2/C=C(\C#N)C(=O)NC2CCCCC2)cc1
9% | -0.9% | -61% | . | O=C(Nc1ccccn1)Nc1ccccc1[N+](=O)[O-]

# An excerpt from above in order of SMILES length, rising:
Rango dissoc inh | Rango-impB inh | miR-21 FLuc | GLA inh pH 4.5 | structure
-5% | -1.5% | -2% | -10 | Cc1ccc(/C=N/NC(=O)c2cccnc2)o1
6% | -1.0% | -6% | 8 | CSc1ccccc1NC(=O)CN1CC(C)OC(C)C1 (configuration not stated)
-3% | 3.7% | -1% | -13 | CCOC(=O)c1cnc2[nH]c3ccccc3n2c1=O
-11% | 0.7% | 0% | -10 | CC1CN(C(=O)c2ccccc2)c2ccccc2NC1=O (configuration not stated)
9% | -0.9% | -61% | . | O=C(Nc1ccccn1)Nc1ccccc1[N+](=O)[O-]
2% | -0.6% | 3% | -1 | CC(C)OC(=O)c1nnc(-c2ccccc2)nc1OC(C)C
1% | 2.9% | -9% | 2 | COCCN1CCn2c(nc3cc([N+](=O)[O-])ccc32)C1
1% | -2.8% | 0% | 3 | Cc1cccc(NC2=C(Cl)C(=O)OC2NC(=O)c2ccccc2)c1 (configuration not stated)
-1% | 0.4% | -3% | -8 | Cc1cc2c(=O)n(C)c(SCC(=O)c3cc4ccccc4o3)nc2s1
2% | 4.5% | 6% | -20 | Cc1ccc(-c2[nH]ncc2/C=C(\C#N)C(=O)NC2CCCCC2)cc1
1% | -3.9% | 1% | 0 | CCN(CC)S(=O)(=O)c1cc(NC(=O)CNc2c(C)n(C)n(-c3ccccc3)c2=O)ccc1C
-9% | 1.4% | 2% | -4 | Cn1cnnc1Sc1cc(N2CCN(S(=O)(=O)c3ccc(Cl)c(Cl)c3)CC2)ccc1[N+](=O)[O-]

# Continued.
Rango dissoc inh | Rango-impB inh | miR-21 FLuc | GLA inh pH 4.5 | structure
0% | 3.1% | ? | . | COc1cccc(/C=C2\SC(=S)N(CCCC(=O)N3CCCCC3CCO)C2=O)c1 (configuration not stated)
1% | -1.1% | -4% | -4 | CN=C1c2cc3cc(OC)ccc3n2CCN1C
21% | -0.1% | -2% | . | COc1ccc(CNS(=O)(=O)c2c(C)[nH]c(C)c2C(=O)N2CCCCC2)cc1
-3% | -4.3% | 3% | -5 | COc1ccccc1N(CC(=O)NCCc1ccccc1)S(C)(=O)=O
-3% | 1.0% | -1% | -11 | Cc1ccc(NC(=O)C2CCCN(S(=O)(=O)c3cnc[nH]3)C2)cc1F (configuration not stated)
-8% | -0.4% | -11% | 0 | O=C(NCCCN1CCOCC1)C1CC(=O)N(CCc2ccccc2)C1 (configuration not stated)
7% | -3.7% | . | . | O=C(COC(=O)c1ccc(Cl)cc1Cl)Nc1cccc(S(=O)(=O)NC2=NCCC2)c1
8% | -2.5% | -16% | . | CN(Cc1ccccc1)C(=O)CCCn1c(=O)c2cccn2c2cccnc21
-14% | ? | -21% | 5 | CCCCCCCNC1=CC(=O)CC(c2ccco2)C1 (configuration not stated)
-5% | 0.7% | -4% | 2 | Cc1ccc(NC(=O)CSc2cccc[n+]2[O-])c([N+](=O)[O-])c1
4% | -2.8% | -22% | -8 | Cc1c(-c2nc(N)nc(Nc3ccc(F)cc3)n2)oc2ccccc12
8% | -3.5% | -15% | . | COc1ccc(NC(=O)CSc2nnc(CC(=O)Nc3ccc(F)cc3)n2C)cc1
8% | 2.7% | -2% | 2 | CCN(CCn1cccn1)C(=O)CCc1nnc(CCc2ccccc2OC)o1
-2% | -0.9% | 12% | -5 | Cc1ccc(OCc2nc(-c3ccccn3)no2)c(Br)c1
7% | -0.9% | 4% | 1 | CCn1ccnc1CN(C)C(=O)CC1C(=O)NCCN1Cc1c(F)cccc1Cl (configuration not stated)
1% | -1.7% | 0% | . | O=c1c2cc([N+](=O)[O-])ccc2nc2n1CCC2
0% | -0.4% | -14% | -9 | CNC(=O)CN(c1ccc(C23CC4CC(CC(C4)C2)C3)cc1)S(C)(=O)=O
0% | -3.3% | 2% | 1 | COc1ccccc1NC1=C(Cl)C(=O)OC1OC(=O)c1ccco1 (configuration not stated)
-4% | 0.0% | . | . | COc1ccc(C=NNC(=O)c2ccccc2NS(=O)(=O)c2cccs2)cc1O
. | . | 1% | 4 | FC(F)Oc1ccc(/C=N/N2CCCCC2)c(OC(F)F)c1
-26% | ? | 14% | . | O=C(C[n+]1cc(Br)cc2ccccc21)c1ccccc1
1% | 0.6% | 0% | 2 | C=CCN1C(=NC(=O)CCC(=O)O)SC2CS(=O)(=O)CC21 (configuration not stated)
1% | -6.0% | -3% | 4 | O=C(COC(=O)c1n[nH]c(=O)c2ccccc12)c1ccccc1
? | 4.3% | -17% | 3 | Nc1c(NCc2ccccc2)c(=O)c1=O
-1% | -2.8% | 3% | . | CCc1ccc(N2CC(C(=O)Nc3ccc(S(=O)(=O)Nc4nccs4)cc3)CC2=O)cc1 (configuration not stated)
-4% | 0.0% | -40% | 5 | Cc1cc(C(=O)COC(=O)c2ccc[nH]c2=O)c(C)n1C1CC1
-3% | 4.7% | -1% | 0 | O=C1CCN(Cc2nc(-c3ccc(Cl)cc3)no2)CCN1
15% | 2.4% | . | . | O=C(CSc1nc2ccccc2c(=O)n1CCCO)NC1CC1
-3% | 1.4% | 6% | 3 | CCCC(=O)N/C(N)=N/c1nc(C)c2ccccc2n1
-19% | ? | . | . | O=C(Nc1ccc(S(=O)(=O)Nc2ncccn2)cc1)C12CC3CC(CC(Cl)(C3)C1)C2
? | -8.0% | 2% | 0 | Cc1ccc(-c2cc(C(=O)Nc3nccs3)c3ccccc3n2)o1
-16% | -2.9% | -57% | 1 | CCc1ccc(NC(=O)C2(C)Cc3ccccc3C(=O)O2)cc1 (configuration not stated)
-19% | -4.2% | 1% | 5 | CC(C)Nc1nc(NC(C)(C)C)nc(Oc2ccc(=O)n(C)n2)n1
15% | 1.9% | -3% | -5 | CC(C)CC(NC(=O)C(NC(=O)C(Cc1ccc(OCc2ccccc2)cc1)NC(=O)OC(C)(C)C)C(C)C)C(N)=O (configuration not stated)
16% | -0.1% | -6% | -8 | COc1ccc(C(c2sc3nc(C)nn3c2O)N2CC(C)OC(C)C2)cc1OC (configuration not stated)
-17% | -0.6% | -1% | 1 | CC(C)=CC(=O)OCC(=O)Nc1ncc(Cl)c(C)c1Cl
0% | 9.5% | . | . | Cc1cc(C(=O)Cn2cnc3cc(F)ccc3c2=O)c(C)n1C1CC1
14% | -0.1% | -1% | . | CC(C)(C)NC(=O)c1nn2c(C(F)(F)F)cc(-c3ccccc3)nc2c1Br
